A647 autofl = compound autofluorescence in A647 spectral region. Compound fluorescence, A647 channel (570/671 nm), Tris buffer. max dye-equivalent concentration, M. 59,000 tested, under 10 active. AID 592; active means above 1 µM dye equivalent; inconclusive means 0.1 to 1 µM; inactive means 0.1 µM or less;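 further: values scaled relative to a standard on each plate; highest value over a series up to 38 µM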
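Buffer was dispensed, compounds and Alexa 647 standards were pin-transferred, and plates sat 15 min at room temperature. Intensity at 570/671 nm was then converted to dye-equivalent concentration using the plate's A647 standard curve.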
Resorufin autofl = compound fluoresces in the resorufin spectral region; hit rate 0.04% among 59,000; max dye-equivalent concentration, M; Compound fluorescence, resorufin region 547/598 nm, buffer; active compounds read high; AID 588; active = above 10 nM dye equivalent; inconclusive = 1 to 10 nM; inactive = 1 nM or less; a few of its hits are not listed in these tables; further: highest value over a series up to 38 µM
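Tris 100 mM pH 8.0; compound added, 15 min RT; CCD imager read, ex 547 nm/em 598 nm; signal normalized to resorufin standard curve (six concentrations per plate) as dye-equivalent concentration.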
A488 autofl = compound fluoresces in the A488 spectral region; max dye equivalency, M; hit rate 0.1% among 59,000; compound autofluorescence, A488 spectral region, dye equivalency; active compounds read high; active = above 10 nM dye equivalent; inconclusive = 1 to 10 nM; inactive = 1 nM or less; about half of its hits are not listed in these tables;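 further: highest value over a series up to 38 µM; compound alone in buffer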
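Autofluorescence read at ex 480/em 540 nm after 15 min RT in 100 mM Tris pH 8.0; compound signal normalized to A488 standard series on each plate, reported as dye-equivalent concentration at each test concentration.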
TSHR ag = agonists of human thyroid stimulating hormone receptor; Potency, µM (titrated, usually from 57.1 µM), inactives show at the highest dose activation, most hits filed as activators; hit rate 0.48% among 73,000; HEK293-CNG-TSHR cells (CNG channel as cAMP sensor), membrane potential dye, cAMP; P16473; AID 926; active = well fitted activation curve of enough size with the parental cells flat; inconclusive = any curve in the parental cells; inactive = parental cells flat and receptor cells flat or falling; further: potency means the concentration at half of the fitted maximal effect; % of control where 0% means no effect; weak receptor curves with flat parental cells got no call and are not listed
Target sequence (P16473 whole entry, looked up): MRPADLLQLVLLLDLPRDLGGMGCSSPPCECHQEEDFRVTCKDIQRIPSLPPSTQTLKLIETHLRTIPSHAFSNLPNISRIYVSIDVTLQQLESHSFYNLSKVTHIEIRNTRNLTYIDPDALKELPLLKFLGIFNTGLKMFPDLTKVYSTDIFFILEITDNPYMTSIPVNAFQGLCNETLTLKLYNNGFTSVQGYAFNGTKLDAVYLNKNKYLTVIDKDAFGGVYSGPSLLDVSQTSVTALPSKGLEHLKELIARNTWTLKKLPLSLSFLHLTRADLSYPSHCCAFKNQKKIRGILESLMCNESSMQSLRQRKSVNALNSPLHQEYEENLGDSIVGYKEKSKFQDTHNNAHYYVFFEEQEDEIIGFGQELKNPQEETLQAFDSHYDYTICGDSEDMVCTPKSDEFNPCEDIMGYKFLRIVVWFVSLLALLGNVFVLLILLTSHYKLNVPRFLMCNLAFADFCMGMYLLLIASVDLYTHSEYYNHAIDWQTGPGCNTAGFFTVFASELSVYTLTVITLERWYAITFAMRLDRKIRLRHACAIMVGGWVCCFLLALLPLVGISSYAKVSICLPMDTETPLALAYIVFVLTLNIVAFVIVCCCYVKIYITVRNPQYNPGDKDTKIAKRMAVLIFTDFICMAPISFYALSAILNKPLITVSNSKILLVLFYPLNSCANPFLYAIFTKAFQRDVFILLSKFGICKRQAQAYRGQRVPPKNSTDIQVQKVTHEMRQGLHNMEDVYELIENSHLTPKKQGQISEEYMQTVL
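HEK 293 cells stably expressing TSHR and a modified CNG channel, with CNG-only parental cells as counterscreen, were preloaded 60 min at room temperature with membrane potential dye containing 100 uM RO 20-1724. Compound exposure was 30 min, and depolarization was read as fluorescence at 590 nm.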
AID923 = qHTS Assay for Allosteric/Competitive Inhibitors of Caspase-1: Spectroscopic Profiling in AFC Spectral Region; hit rate 1.1% among 75,000; Potency, µM (doses to about 57.5 µM), for inactives: at the highest dose fluorescence increase, most hits filed as activators; compound fluorescence, AFC spectral region (405/520 nm); almost no hit is shown here; active means well fitted activation curve with a large enough effect; inconclusive means small, poorly fitted or top-dose-only effect;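 further: potency means the concentration at half of the fitted maximal effect; 0% is about no effect; scaled to a free AFC standard on each plate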
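Baseline compound fluorescence (AFC region, 405 nm ex/520 nm em) taken from the intercept of kinetic reads with 50 nM caspase-1 and 5 uM Ac-WEHD-AFC; normalized to an on-plate AFC standard curve; compounds titrated up to 57 uM.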
* = called active by the depositor; i = inactive; ? = inconclusive; . = no result given; & = joins results of further samples; [ ] = another dose, or the depositor's remark.

SMILES	A647 autofl	Resorufin autofl	A488 autofl	TSHR ag	AID923
O=C(Nc1ccccc1N1CCCCC1)c1ncoc1-c1ccc(F)cc1	3.3e-08	i	i	6%	-0.3%
O=C1c2ccccc2C(=O)N1CCOCCN1C(=O)c2ccccc2C1=O	2.4e-09	i	i	6%	2.2%
O=C(NCc1cccs1)c1nc2ncccn2n1	1e-09	i	i	6%	1.8%
CC1CCOC2(O1)C(=O)N(CN1CCN(c3ccccc3F)CC1)c1ccccc12 (centres undefined)	1e-09	i	i	1%	-0.8%
C/C(CCN1CCCc2nc(C)c(C)cc21)=N\O[C@@H](C)c1cn([C@@H]2COC[C@@H]2O)nn1	.	.	.	10%[11.4 µM]	3.1%[11.5 µM]
CCOC(=O)c1[nH]c(C)c(CN(CCc2ccc(OC)c(OC)c2)C(=O)CCCC(=O)O)c1C	4e-09	i	i	5%[11.4 µM]	1.8%
O=S(=O)(NCc1cn2ccsc2n1)c1cccs1	1.5e-08	i	i	2%[11.4 µM]	1.7%
COc1ccc(-n2c(SCC(=O)OC(C)C)nnc2-c2ccccn2)cc1	3.1e-08	i	i	11%	1.1%
O=C(CN1CCCCCC1)OCCN=C1NS(=O)(=O)c2ccccc21	1e-09	i	i	4%	1.0%
COC(=O)c1ccc(N2C(=O)c3ccc(OC)c(OC)c3C2=O)cc1	1e-09	i	i	0%	0.7%
CC(C)Oc1ccc(-c2nn(-c3ccccc3)cc2/C=c2\sc3ncnn3c2=O)cc1	3.5e-08	i	i	?	-1.1%
CN(C)c1cccc(O)c1	.	.	.	?	11%
COc1ccc(S(=O)(=O)N(C)c2ccc(OCC(=O)Nc3cc(C)on3)cc2)cc1	5.9e-08	i	i	15%	-1.3%
C=CCOc1c(CNc2nccs2)cccc1OCC	2.1e-08	i	i	?	0.9%
Cc1ccc2c(c1)c1c3n2CC(=C2C(=O)OC(C)(C)OC2=O)NC3CCC1 (centres undefined)	1e-09	i	i	2%	15%

Given in CSV form: entries from further up
Compound,A647 autofl,Resorufin autofl,A488 autofl,TSHR ag,AID923
COC(=O)c1ccc(N2C(=O)c3ccc(OC)c(OC)c3C2=O)cc1,1e-09,i,i,0%,0.7%
CC(C)Oc1ccc(-c2nn(-c3ccccc3)cc2/C=c2\sc3ncnn3c2=O)cc1,3.5e-08,i,i,?,-1.1%
CN(C)c1cccc(O)c1,.,.,.,?,11%
COc1ccc(S(=O)(=O)N(C)c2ccc(OCC(=O)Nc3cc(C)on3)cc2)cc1,5.9e-08,i,i,15%,-1.3%
C=CCOc1c(CNc2nccs2)cccc1OCC,2.1e-08,i,i,?,0.9%

(next part)
SMILES	A647 autofl	Resorufin autofl	A488 autofl	TSHR ag	AID923
C(=Nc1cnc2ccccc2c1)c1ccc2ccccc2n1	1e-09	i	i	1%[11.4 µM]	-2.0%[11.5 µM]
O=C(Cn1c(=O)oc2cc(S(=O)(=O)N3CCCC3)ccc21)Nc1cccc(C(F)(F)F)c1	1.5e-08	i	i	.	0.2%
Cn1c(=O)c2c(nc(N3CCN(c4ccccc4)CC3)n2CCCc2ccccc2)n(C)c1=O	7.6e-09	i	i	10%	-0.1%
O=S(=O)(Nc1ccc2nc(-c3ccc(Br)o3)[nH]c2c1)c1ccccc1	2.7e-09	i	i	?	7.8%
O=S(=O)(c1cccc(C(F)(F)F)c1)N(CCCN1CCOCC1)Cc1cccs1	7.6e-09	i	i	13%	-2.7%
C(#CC1C=CC2OC(c3ccccc3)OCC2O1)c1ccccc1 (centres undefined)	.	.	.	5%[11.4 µM]	3.2%[11.5 µM]
COC(=O)c1sccc1NC(=O)C1CC=CCC1C(=O)O (centres undefined)	6.9e-09	i	i	?	0.2%
Nc1nonc1C(=O)OCC(=O)N1CCOCC1	1e-09	i	i	-2%	-2.6%
CCCn1c(=N)n(CC(=O)OCC)c2ccccc21	1e-09	i	i	1%[11.4 µM]	1.7%
Cn1nnc2cc(C(=O)NCc3ccc4c(c3)OCO4)ccc21	1.6e-08	i	i	0%	0.6%
CCOC(=O)c1c(NC(=O)Cn2c(=O)oc3ccccc32)oc(C)c1C(C)=O	3.1e-09	i	i	12%	-0.6%
O=S(=O)(c1ccc(F)c2ccccc12)N1CCCCC1	9.9e-09	i	i	?	-0.4%
COc1ccc(OCC(=O)OCCN(C)C)cc1	1.9e-08	i	i	.	.
O=C1C(=O)N(CCOCCO)C(c2ccccn2)/C1=C(\O)c1ccccc1 (centres undefined)	1.2e-08	i	i	?	0.2%
O=c1cc(CF)[nH]c(=S)[nH]1	1e-09	i	i	-2%[11.4 µM]	1.2%[11.5 µM]
Cc1ccc(-c2nsc3c(N4CCN(C(=O)c5ccco5)CC4)ncnc23)cc1	3.3e-08	i	i	3%	0.8%
CCOC(=O)CC1=C(C(=O)OCC)C(c2ccncc2)C(C#N)=C(N)O1 (centres undefined)	.	.	.	7%	-0.4%
CCOC(=O)c1cnc(-c2ccccc2)nc1N	1e-09	i	i	-9%	-2.1%
COc1cccc(Cn2c(=O)c(C)nc3cnc(Oc4ccccc4)nc32)c1	1e-09	i	i	?	6.6%
CCc1ccc(C2CC(c3ccc(Cl)cc3)n3nc(N)nc3N2)cc1 (centres undefined)	.	.	.	-3%	-1.8%
N[C@@H](Cc1ccccc1)c1nnc2sc(SCc3ccccc3)nn12	1e-09	i	i	17%	0.2%
COc1ccccc1C(=O)NC(CCSC)C(=O)OCC(=O)NC(=O)NCc1ccco1 (centres undefined)	9e-09	i	i	19%	0.0%
COCc1[nH]nc2c1C(c1ccccc1F)C(C#N)=C(N)O2 (centres undefined)	1.8e-08	i	i	1%	0.4%
CC(=O)N(C)c1ccc(OCC(O)CN(Cc2ccco2)S(=O)(=O)c2ccc(C)cc2)cc1 (centres undefined)	4.9e-08	i	i	.	-2.8%
CCN1CCN(C(=O)c2ccccc2N(C)S(=O)(=O)c2ccc(C)cc2)CC1	2.6e-08	i	i	9%	-1.0%
COc1cc2c(cc1OC)CN(S(C)(=O)=O)CC2	.	.	.	-4%	-0.3%
CCC(C)Sc1nnc(-c2c[nH]c3ccccc23)n1CCOC (centres undefined)	1e-09	i	i	?	-1.6%
O=C(CN1C2=NCCCN2c2ccccc21)c1ccc2c(c1)OCO2	1e-09	i	i	12%	0.9%
CCn1c(=O)cc(SCC(=O)N2CCOCC2)c2ccccc21	2.6e-08	i	i	-2%	0.5%
COC(=O)C1=C(C)N(Cc2ccccc2)C2=C3C(=O)N(c4ccccc4)C(=O)C3[C@@](O)(C(=O)OC)C(=O)N2C1c1ccccc1 (some centres undefined)	.	.	.	7%&-1%[11.4 µM]	-1.3%&18%[11.5 µM]

Arranged by heavy-atom count (descending): 4 of the compounds above.
SMILES	A647 autofl	Resorufin autofl	A488 autofl	TSHR ag	AID923
CC(=O)N(C)c1ccc(OCC(O)CN(Cc2ccco2)S(=O)(=O)c2ccc(C)cc2)cc1 (centres undefined)	4.9e-08	i	i	.	-2.8%
COc1ccccc1C(=O)NC(CCSC)C(=O)OCC(=O)NC(=O)NCc1ccco1 (centres undefined)	9e-09	i	i	19%	0.0%
COc1cccc(Cn2c(=O)c(C)nc3cnc(Oc4ccccc4)nc32)c1	1e-09	i	i	?	6.6%
CCc1ccc(C2CC(c3ccc(Cl)cc3)n3nc(N)nc3N2)cc1 (centres undefined)	.	.	.	-3%	-1.8%

(listing goes on)
SMILES	A647 autofl	Resorufin autofl	A488 autofl	TSHR ag	AID923
CC(=O)N(OCc1ccccc1)[C@@H]1c2cc(C#N)ccc2OC(C)(C)[C@H]1O	.	.	.	-3%	0.0%
Cc1ccc(Cn2nnc3c(=O)n(CC(=O)NCc4ccc5c(c4)OCO5)cnc32)cc1	4.2e-08	i	i	?	1.7%
CC(C)N1CC(O)=C(c2nc3ccccc3[nH]2)C1=N	2.9e-08	i	i	8%	-1.9%
Cc1sc2nc(C(C)C)nc(SCC(=O)N3CCN(C(=O)c4ccco4)CC3)c2c1C	1e-09	i	i	.	-0.3%
CCOC(=O)C1CCCN(C(=O)CCCn2nc(C)n3c(cc4sccc43)c2=O)C1 (centres undefined)	.	.	.	3%	-2.6%
COc1ccc(Oc2ncc3nc(-c4ccccc4)c(=O)n(CCC#N)c3n2)cc1	1.6e-08	i	i	0%	20%
CCOC(=O)CSc1nnc(Cn2c(=O)sc3ccccc32)n1-c1ccccc1C	.	.	.	27%	-3.1%
CC(NC(=O)CCC(=O)NC(C)C1COc2ccccc2O1)C1COc2ccccc2O1 (centres undefined)	1e-09	i	i	0%	-0.9%
COCCn1c(=O)cnc2cnc(Nc3cccc(OC)c3)nc21	1.2e-08	i	i	.	3.2%
NC(=O)COc1c(-c2ccccc2)oc2ccccc2c1=O	8.6e-09	i	i	29%	-1.7%
CCCCC[C@H](O)C=C[C@H]1[C@H](O)CC(=O)[C@H]1CCCCCCC(=O)O	.	.	.	?	-0.4%
O=C(Nc1cnn(Cc2ccc(F)cc2)c1)c1cc(-c2ccc(Br)cc2)on1	.	.	.	3%	1.7%
Cc1cc(NC(=O)CCC(=O)N(c2ccc(F)cc2)C2(C(=O)NC3CCCCC3)CCCC2)no1	8.5e-09	i	i	1%[11.4 µM]	-1.0%
CC(C)OC(=O)c1c2nc3ccccc3nc2n2c1[nH]c(=O)c1ccccc12	3.4e-09	i	i	.	.
CC1CCCN(S(=O)(=O)c2ccc(C(=O)Nc3nnc(-c4ccccc4Cl)o3)cc2)C1 (centres undefined)	2.4e-08	i	i	?	2.3%
COC(=O)C1=C(N)Oc2cc(C)n(CCN3CCOCC3)c(=O)c2C1c1cccnc1 (centres undefined)	3e-09	i	i	3%	0.6%
C=CCn1c(C)c(C(C)=O)c(SC)nc1=S	.	.	.	4%	1.3%
CN(C)c1cccc(C(=O)NC2CCCCCC2)c1	1e-09	i	i	12%	-0.2%
CC1(C)CC(=O)C(C2=NC(C)(C)Cc3ccccc32)=C(O)C1	1e-09	i	i	.	.
COc1cc2nc(COc3ccc(C#N)cc3)n(CC#N)c(=O)c2cc1OC	1e-09	i	i	3%	-1.4%
O=c1cc(CSc2nnc(-c3ccco3)o2)c2ccccc2[nH]1	1e-09	i	i	?	-1.8%
Cc1cc(NC(=O)C(C)C)ncc1NC(=O)CCc1ccccc1	1e-09	i	i	2%	0.2%
COc1cccc(-n2ccnc2SCC(=O)Nc2nccs2)c1	1.4e-09	i	i	4%	0.7%
CC(=O)N1CCC[C@@]2(CCN(Cc3ccccc3)C2)C1	1e-09	i	i	?	2.1%
Cc1ccc(-n2ncc3c(=O)[nH]c(SCC(=O)N4CCC(C)CC4)nc32)cc1C	.	.	.	3%	0.0%
Cn1cnc([N+](=O)[O-])c1SCC(=O)O	1e-09	i	i	-5%[11.4 µM]	0.0%[11.5 µM]
O=c1n(-c2ccccc2)c(=O)n2n1CCC2	1.8e-08	i	i	1%[11.4 µM]	-1.7%
Cn1nnc2cc(NC(=O)N3CCN(c4ccccn4)CC3)ccc21	2.4e-08	i	i	-8%	-1.4%
COCCCNC(=O)c1ccc(N2CCCC2)c(NS(=O)(=O)c2ccc(C)cc2)c1	9.8e-09	i	i	-8%	-1.1%
O=C(O)CCC(=O)c1ccc2c(c1)OCCO2	.	.	.	?	0.3%
CC(=O)Nc1sc2c(c1C(=O)N1CCOCC1)CCCCC2	1e-09	i	i	?	-1.3%
COc1cccc(-n2c(Cc3cc(=O)[nH]c(=O)[nH]3)nnc2SCC(=O)N2CCCC2)c1	4.2e-08	i	i	-1%	-1.3%
COC(=O)Nc1nnc(-c2ccccc2Cl)s1	1e-09	i	i	1%	-1.2%
COC(=O)C1=C(C)N(CC2CCCO2)C(=O)C1 (centres undefined)	.	.	.	-19%	0.4%
C[N+](C)(C)CCN(Cc1cccs1)c1ccccn1	1e-09	i	i	1%[11.4 µM]	-0.6%[11.5 µM]
CCOC(=O)C(C)C1(O)c2ccccc2-c2ncccc21 (centres undefined)	1.6e-09	i	i	3%	1.0%

These rows are one share of the data. The share of hits here may be higher or lower than overall.
